Compound activity deposited in PubChem BioAssay by National Center for Advancing Translational Sciences (NCATS).
Menin-MLL FL inh: inhibitors of human menin-MLL interaction, wild-type MLL peptide; Fluorescence polarization, fluorescein-MLL peptide displacement from menin; FP activity change, % at 61.4 µM; 290,000 tested, under 10 active; AID 1766; inconclusive = falling polarisation curve, or a change in total fluorescence; inactive = total fluorescence flat and polarisation flat or rising; no compound was filed as active; the % refers to the polarisation; negative = inhibition;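 note: % of control where 0% means no effect; inhibitors lower the polarisation; unlabelled MLL peptide was the positive control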
TRPV1 potentiator: potentiators of human vanilloid receptor 1 (TRPV1); Q8NER1; TRPV1-expressing cells, Fluo-8 calcium influx, capsaicin EC20 potentiation; host cell line not named in the record; control for the full effect not named in the record; potentiation, % at 8.33 µM; actives 0.02% (n = 320,000); AID 540277; active means potentiation above 80%; inconclusive means 30% to 80%; inactive means below 30%; note: 0% is about no effect
Target sequence (Q8NER1 whole entry, looked up): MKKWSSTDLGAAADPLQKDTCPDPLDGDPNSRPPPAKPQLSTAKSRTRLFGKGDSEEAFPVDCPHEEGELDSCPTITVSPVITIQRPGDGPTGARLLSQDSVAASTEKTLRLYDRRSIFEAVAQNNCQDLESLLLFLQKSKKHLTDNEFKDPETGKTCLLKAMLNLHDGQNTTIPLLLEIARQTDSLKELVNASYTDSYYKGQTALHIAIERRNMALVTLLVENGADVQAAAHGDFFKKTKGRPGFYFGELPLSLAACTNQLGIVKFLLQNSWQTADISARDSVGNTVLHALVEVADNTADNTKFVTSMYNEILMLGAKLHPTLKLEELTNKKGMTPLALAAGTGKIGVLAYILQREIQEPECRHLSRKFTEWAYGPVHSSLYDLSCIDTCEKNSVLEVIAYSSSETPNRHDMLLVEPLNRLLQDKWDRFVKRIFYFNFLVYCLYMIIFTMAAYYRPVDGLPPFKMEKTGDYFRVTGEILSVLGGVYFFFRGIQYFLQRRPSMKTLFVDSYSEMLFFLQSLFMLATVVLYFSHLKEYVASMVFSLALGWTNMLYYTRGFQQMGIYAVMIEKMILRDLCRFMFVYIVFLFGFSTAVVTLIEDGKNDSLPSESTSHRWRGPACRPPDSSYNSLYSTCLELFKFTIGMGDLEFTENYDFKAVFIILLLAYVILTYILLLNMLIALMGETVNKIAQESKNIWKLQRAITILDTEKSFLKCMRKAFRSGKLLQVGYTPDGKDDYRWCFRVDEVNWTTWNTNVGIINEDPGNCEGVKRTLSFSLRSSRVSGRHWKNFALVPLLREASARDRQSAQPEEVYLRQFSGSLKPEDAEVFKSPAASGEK
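TRPV1-expressing cells were cultured overnight at 35.5C and loaded with Fluo-8 calcium dye for 40 to 90 min at room temperature. After a 10 s baseline, compound was added and calcium influx was read kinetically for 3 min (ex 480/em 520 nm).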
ClpP mod: qHTS Assay for Activators of ClpP | purified B. subtilis ClpP, FRET peptide cleavage, 20 min | ATP-dependent Clp protease proteolytic subunit (Bacillus subtilis (strain 168)), P80244 | Potency, µM (doses to about 57.5 µM), without a hit: top-dose activity change, negative = active | actives 1.9% (n = 340,000); active = well fitted falling curve with a large enough effect; inconclusive = small, poorly fitted or top-dose-only effect; inactive = no such curve, though single readings can be large or run the other way; note: potency is the fitted concentration of half-maximal effect; the source files actives as falling curves though it sought activators and does not explain the sign; nearly all actives have a fitted effect of over 65% in size; many hits overshoot -100%
Target sequence (P80244 whole entry, looked up): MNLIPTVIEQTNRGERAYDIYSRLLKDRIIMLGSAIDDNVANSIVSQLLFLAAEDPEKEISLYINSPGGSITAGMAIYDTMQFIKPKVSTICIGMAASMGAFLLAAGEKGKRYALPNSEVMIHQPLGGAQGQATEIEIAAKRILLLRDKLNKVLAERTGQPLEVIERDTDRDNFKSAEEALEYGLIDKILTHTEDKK
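ClpP 10 microg/mL final, pH 8 Tris/KCl buffer with BSA, glycerol, Tween-20; compound pinned in; FRET-FV substrate; RT 20 min; Ex320/Em430; ΔFRET vs ADEP 5.8 microM, DMSO, no enzyme.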
gsp antag: antagonizes gsp, the McCune-Albright syndrome mutation. actives 0.4% (n = 340,000). Potency, µM (highest dose often 76.9 µM), for the others: at the top dose activity change, negative = inhibition, most hits filed as inhibitors. AID 624288. gsp-mutant cells, cAMP HTRF, 30 min; control for the full effect not named in the record; active = falling curve of any shape with a large fitted effect; inconclusive = falling curve, mostly with a smaller effect; inactive = flat or rising curve; cell line not stated here;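 note: intracellular cAMP measured with PDE inhibitor Ro 20-1724 present during compound exposure; potency is the fitted concentration of half-maximal effect; % is set by controls: 0 for no effect and ±100 for the full control effect; nearly all actives have a fitted effect of over 65% in size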
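G418-selected cells were plated in DMEM/10% FBS for 16-24 h at 37C, then treated with compounds plus the PDE inhibitor […] (300 uM solution added) for 30 min at 37C. Intracellular cAMP was measured by HTRF after 30 min lysis at room temperature.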
gsp ag: activates gsp, the McCune-Albright syndrome mutation; Potency, µM (highest dose often 76.9 µM), for the others: top-dose activation (cAMP increase), actives largely listed as activators; gsp mutant cells, cAMP HTRF, 30 min; control for the full effect not named in the record; actives 0.13% (n = 340,000); AID 624287; active = well fitted activation curve with a large enough effect; inconclusive = small, poorly fitted or top-dose-only effect, or another doubt; inactive = no such curve, though single readings can be large or run the other way; cell line not stated here;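 note: phosphodiesterase inhibitor Ro 20-1724 added with compounds to block cAMP breakdown; potency is the fitted concentration of half-maximal effect; nearly all actives have a fitted effect of over 60% in size; about a fifth of the inactives were tested at one dose only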
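Cells stably selected in G418 were plated at 2000/well, grown 16-24 hr, then given compounds in DMSO with the PDE inhibitor […] (300 uM solution added) for 30 min at 37C; cAMP was read by HTRF.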
Sfp PPTase inh: inhibitors of Bacillus subtilis Sfp phosphopantetheinyl transferase. Potency, µM, inactives show max response, negative = inhibition, most hits filed as inhibitors. Biochemical Sfp PPTase activity, qHTS. Q9F4F7. AID 1490. actives 3.5% (n = 310,000); active = well fitted inhibition curve with a large enough effect; inconclusive = small, poorly fitted or top-dose-only effect, or another doubt; inactive = no such curve, though single readings can be large or run the other way;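 note: the enzyme is Sfp with the accession as filed and its product quenches rhodamine fluorescence; potency is the fitted concentration of half-maximal effect; 0% = enzyme reaction without inhibitor and -100% = no enzyme wells; top concentration of the series not given in the record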
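Sfp 15 nM + cpd, 15 min RT; start w/ rhodamine-CoA 5 uM, BHQ-2-YbbR 12.5 uM (final); 50 mM Hepes pH 7.6, 10 mM MgCl2, 0.01% NP-40, 0.01% BSA; read 525/598 nm at 0 and 30 min.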
CtBP-E1A blk: inhibitors of CtBP/E1A interaction | actives 0.49% (n = 340,000) | activity change, % (no concentration beside the values) | AID 651724 | AlphaScreen GST-E1A/His-CtBP binding, 1536-well; hits give low values; control for the full effect not named in the record; in the data active means activity change below about -65%; inconclusive means about -30% to -65%; inactive means above about -30%; note: % is set by controls: 0 for no effect and ±100 for the full control effect; compound concentration not given in the record
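Homogeneous bead-based format: GST-tagged E1A captured on glutathione donor beads, His-tagged CtBP on nickel acceptor beads; compounds precede bead addition by 2 h at 37 °C.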
* = called active by the depositor; ? = inconclusive; nt = not tested or not shown; [ ] = dose if it differs, or a comment.

SMILES	Menin-MLL FL inh	TRPV1 potentiator	ClpP mod	gsp antag	gsp ag	Sfp PPTase inh	CtBP-E1A blk
CCOc1ccccc1NC(=O)CSc1nc(N)c(C#N)cc1C#N	?	12	-28%	-9%[15.4 µM]	?	1%	-9
Cc1cc(C)c(C)c(S(=O)(=O)Nc2cccc(S(=O)(=O)Nc3ccccc3C(=O)O)c2)c1C	nt	nt	-2.0%	-6%	-40%[15.4 µM]	nt	-10
CCC(=O)Nc1ccc(NC(=O)c2ccc3ccccc3c2)cc1	-0.1	1	0.5%	14%	8%[15.4 µM]	15%	0
CN1CCN(C2Cc3cc(F)ccc3Sc3ccc(Cl)cc32)CC1 (stereo not drawn)	nt	nt	-0.1%	12%	-3%	nt	nt
O=C1OC[C@H]2CCCN2C(=O)[C@@H](CC(=O)N(CCO)Cc2ccccc2)C/C=C\C[C@H]1Cc1ccc(F)cc1	nt	nt	0.0%	-17%	nt	nt	1
O=S(=O)(c1ccccc1)N1CCC(O)(CSc2ccc(Cl)cc2)CC1	1.1	?	0.8%	?	8%[15.4 µM]	7%	4
O=C(CSCc1ccccc1)N1CCN(S(=O)(=O)c2ccc(F)cc2)CC1	nt	-8	-0.4%	-14%	16%	5%	4
CC1(c2nnc(-c3ccncc3)o2)CC(c2cccnc2)=NO1 (stereo not drawn)	nt	nt	-7.5%	5%	23%	nt	nt
O=C(/C=C/c1c(Cl)nc2ccccn12)N1CCN(c2ccc(F)cc2)CC1	-5.0	-1	nt	5%	1%[15.4 µM]	9%	1
Cn1c(=O)c2cc(S(=O)(=O)NCCC(=O)NCc3ccccc3Cl)ccc2n(C)c1=O	1.7	3	-8.9%	-6%	-3%	2%	-81*
Cc1ccc(NC(=O)/C(C#N)=C/c2ccccc2C(F)(F)F)cc1	nt	-12	-1.9%	-3%	?	3%	-2
Cc1ccccc1-c1nc(CN2CCC(C(=O)NCCCN3CCCC3)CC2)c(C)o1	?	-10	-3.0%	-6%	-32%[inhibitor]	-3%	-6
CCS(=O)(=O)c1ccc(C=NNc2nc3ccccc3o2)cc1	nt	nt	0.6%	-4%	19%	nt	10
CCOc1ccc(CCNS(=O)(=O)c2c(C)n[nH]c2C)cc1OCC	5.4	3	1.2%	8%	-24%	8%	0
Cc1ccc(-n2nnnc2SCC(=O)NC2CCCc3ccccc32)c(C)c1 (stereo not drawn)	2.8	-4	-0.6%	-17%	3%[15.4 µM]	-2%	-15
C/C(=N\NC(=O)CN1CCN(Cc2ccccc2)CC1)c1ccncc1	3.6	nt	nt	11%	6%[15.4 µM]	12%	4
COc1ccc(N/C(N)=N/c2nc(C)c(Cc3ccccc3)c(=O)[nH]2)cc1	-1.8	-36	-3.2%	1%	11%	0%	-14
COc1ccc(NC(=O)C2CCN(C(=O)Cc3ccccc3)CC2)cc1OC	0.9	5	nt	8%	23%[15.4 µM]	16%	-5
COCCNC(=S)N1CCN(S(C)(=O)=O)CC1	-4.4	-11	nt	4%	7%[15.4 µM]	26%	2
CCN(CC)CCNC(=O)COc1ccc(Cl)cc1Cl	0.4	11	-1.9%	5%	-8%	16%	5
Fc1ccc(-n2c(Cc3ccccc3)nnc2SCc2nc(-c3cccs3)no2)cc1	3.9	2	0.8%	-18%	-63%	7%	10
C=CCn1c(C(CCCC)CC(C)O)n[nH]c1=S (stereo not drawn)	1.6	8	-0.7%	14%	18%	8%	15
Cn1/c(=N\NC(=O)c2ccccc2Cl)sc2ccccc21	-1.4	0	nt	nt	9%[15.4 µM]	10%	0
NS(=O)(=O)c1ccc(NC2=CC(=O)C(=O)c3ccccc32)cc1	-5.4	-6	nt	3%	-8%	-16%	?
CC(C)(C)C(=O)COC(=O)c1cc(-c2cccnc2)nc2ccccc12	?	4	-15%	-11%	-12%	?	2
CN(c1ccccc1)S(=O)(=O)c1cc(C(=O)N2CCN(c3ncccn3)CC2)ccc1Cl	nt	nt	-13%	-16%	14%	nt	-8
O=C1c2ccccc2C(=O)C1c1ccc(O)cc1	?	?	nt	7%	2%	?	13
COc1ccccc1C(=O)Nc1ccc2ccccc2c1	nt	nt	nt	-10%	8%	nt	8
CC(=O)c1ccc(NC(=S)NNC(=O)NC2CCCCC2)cc1	1.8	25	nt	-11%	13%[15.4 µM]	16µM*	-1
Cc1ccc(-n2nc3c(=O)n(CCCC(=O)NCc4ccccc4Cl)nc(C)c3c2C)cc1	-0.2	2	-5.9%	8%	-3%	-5%	nt
O=C(OCCN1CCOCC1)c1ccc(OCCN2CCOCC2)cc1	1.1	22	?	4%	5%	1%	-1
CC(=O)Nc1ccc(NC(=O)CCC(=O)OCC(=O)c2cccc([N+](=O)[O-])c2)cc1	-3.2	-31	-1.3%	6%	-28%	-4%	nt
O=C(O)CCN1C(=O)c2ccc(NC(=O)COc3ccccc3)cc2C1=O	nt	0	-12%	3%	5%	-7%	-1
NC(=O)CC(NC(=O)c1ccc(Cl)cc1)C(=O)NCCc1ccc(S(N)(=O)=O)cc1 (stereo not drawn)	5.5	5	nt	20%	-29%	-13%	6
Cc1nnc(NC(=O)CCS(=O)(=O)Cc2ccccc2)s1	-0.9	6	nt	6%	-3%	-27%	4
O=C(Cn1ccc(=O)[nH]c1=O)Nc1ccc(O)c([N+](=O)[O-])c1	nt	nt	nt	1%	15%	nt	-17
CC1CN(C(=O)c2ccc(CNS(=O)(=O)c3cccc(C(F)(F)F)c3)cc2)CC(C)O1 (stereo not drawn)	6.3	-10	-1.5%	-12%	-8%	14%	-3
CN1CCN(CC(=O)Nc2ccc(OC(F)(F)F)cc2)CC1	-28	16	-0.2%	-7%	-1%[15.4 µM]	?	5
COc1ccc(NC(=O)NNC(=O)c2ccccc2-n2cccc2)cc1OC	6.8	7	nt	1%	2%	3%	0
O=C(COC(=O)c1ccc2ccccc2c1)NCCCc1ccccc1	0.5	-18	?	14%	-79%[inhibitor]	7%	nt
Cc1cccc(NC(=O)CCc2ccccc2)c1C	-0.1	-8	-3.2%	1%	-3%[15.4 µM]	-5%	-21
O=C(c1ccccc1Cl)N1CCC(O)(c2cccnc2)CC1	-2.6	0	-0.1%	9%	?	2%	-2
C=C(C)C(=O)Nc1cccc(C2=NOC3(C2)C[C@@H](C(N)=O)N(C(=O)C(=C)C)C3)c1 (stereo partly drawn)	-2.9	-14	0.2%	6%	12%	18%	9
CCCN1C(=O)c2ccccc2NC1c1ccc(O)c(OCC)c1 (stereo not drawn)	1.0	15	4.0%	7%	-25%	0%	nt
Cc1cc(C)c(N=C2CCCN2Cc2ccccc2)c(C#N)c1	-1.6	-21	-8.0%	-8%	-23%	9%	14
O=C(N/N=C/c1ccc(O)cc1)c1cc(-c2ccc3c(c2)OCO3)n[nH]1	1.5	-6	-4.7%	-21%	-20%	18%	?
CCOC(=O)CSc1nc2cc(OC)ccc2cc1C#N	11	-12	32µM*	1%	17%	12%	18
CC(C)N(c1nnc(N)s1)C(C)C	2.8	2	-0.1%	-11%	-8%	15%	3
Cc1ccnc(NC(=O)c2cnc(Cl)c(Cl)c2)c1	3.5	-8	nt	-32%	7%	14%	-1
CC(C(=O)Nc1ccccc1C(=O)O)n1c(C(F)(F)F)nc2ccccc21 (stereo not drawn)	0.8	1	nt	2%	26%[15.4 µM]	0%	-1
Cc1ccc(S(=O)(=O)N2CCCCC2)cc1NC(=O)CN1CCCC1c1cccs1 (stereo not drawn)	nt	nt	-0.3%	nt	-8%	nt	-2
CCOc1ccc(S(=O)(=O)NCCC(=O)OCC(=O)c2ccc[nH]2)cc1	0.0	2	nt	nt	4%[15.4 µM]	7%	-9
COc1ccc(/C=N/n2c(=O)[nH]c3c([nH]c4ccc(F)cc43)c2=O)cc1CN1CCCCC1	1.1	4	-7.6%	-1%	7%[15.4 µM]	9%	-12
CC(=O)Nc1ccc(OC(=O)C(CCS(C)(=O)=O)N2C(=O)c3ccccc3C2=O)cc1 (stereo not drawn)	1.5	13	-1.7%	16%	9%	7%	5
CC1(C)C(c2cccs2)=[N+]([O-])C2(CCCCC/C2=N\O)N1O (stereo not drawn)	0.0	17	-2.4%	13%	-29%	-2%	-1
Cc1cc(O)c(C(C)C)cc1NC(=O)c1ccccc1Cl	-1.0	-2	1.5%	3%	-27%	11%	5
CCn1c(SCC(=O)c2c(N)n(C3CC3)c(=O)[nH]c2=O)nnc1-c1ccoc1C	nt	3	-0.7%	11%	4%	nt	nt
CC(C)(C)c1ccc(C(=O)Nc2ncn[nH]2)cc1	0.6	15	nt	5%	-4%[15.4 µM]	19%	1
O=C(NNC(=S)NC1CCCCC1)c1cccc(S(=O)(=O)Nc2ccccc2Cl)c1	-0.5	9	0.4%	?	4%	?	-26
C/C(CC(=O)Nc1ccc(C)c(Cl)c1)=N\NC(=O)c1ccco1	2.7	1	nt	-6%	24%	7%	-1

Additional structures:
SMILES	Menin-MLL FL inh	TRPV1 potentiator	ClpP mod	gsp antag	gsp ag	Sfp PPTase inh	CtBP-E1A blk
O=[N+]([O-])c1cccc(-c2ccc(/C=N/NC(=S)Nc3cccc(F)c3)o2)c1	-0.4	-2	-2.3%	-15%	-8%[15.4 µM]	-6%	-8
C=CCn1c(N)cc(=O)nc1SCC(=O)N1CCN(c2ccc(F)cc2)CC1	3.7	-9	-0.8%	-3%	-25%	13%	4
CC(C)CC(c1nnnn1CC1CCCO1)N1CCN(Cc2ccc3c(c2)OCO3)CC1 (stereo not drawn)	-0.9	-17	-3.2%	-2%	-7%	15%	-5
N=c1c(C(=O)NC2CCCC2)cc2c(=O)n3ccccc3nc2n1C1CCCCC1	nt	-11	nt	-11%	-7%[15.4 µM]	14%	-9
CCOC(=O)CN(C)C(=O)CCc1nnc(-c2ccc(-c3ccccc3)cc2)o1	2.4	3	nt	-9%	-25%	22%	6
O=C(COC(=O)CCc1ccc(S(=O)(=O)N2CCOCC2)cc1)NC1CCCCCC1	8.4	9	1.2%	-13%	7%	6%	0
CN(C)CCOCCOc1ccccc1-c1ccccc1	2.5	-13	0.2%	2%	-2%	79µM*	1
CC(OC(=O)c1cccc(-n2cnnn2)c1)C(=O)NCc1ccccc1 (stereo not drawn)	nt	1	nt	3%	14%[15.4 µM]	nt	4
